Screens: PubChem, several laboratories
Sa RN4220 lethal = S. aureus RN4220 growth inhibition; OD600, 16 h; inhibition, % (test concentration not listed); 0.33% of 330,000 active; AID 1259311;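 active = z-score of -3 or lower and OD600 up to 0.18 on both plates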;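 note: plate controls were untreated cells for no effect and reference antibiotic for full effect; stock transfer was 100 nL into about 80 µL; one replicate is shown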
Bead autofluor = flagged as autofluorescent in microsphere protease counterscreen | compound autofluorescence counterscreen, microsphere flow cytometry; stronger effect = higher value | fluorescence intensity (test concentration not listed) | 3.1% of 360,000 active;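 active = at least 3 SD above the mean of all compounds, about 16000 in these data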;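 note: 100 nL of 1 mM stock went into each well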
ugtP null kill = growth inhibition of S. aureus ugtP deletion strain; growth inhibition, % (no concentration beside the values); AID 1259309; 0.54% of 330,000 active; S. aureus RN4220 ugtP deletion, OD600 growth, 16 h; some inactives read as strong as hits;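 active = z-score under -3 and OD600 up to 0.15 on both plates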;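 note: plate controls were untreated wells for no effect and antibiotic for full effect; wells of about 80 µL received 100 nL stock; the first replicate is given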
BJeLR lethal = BJeLR cell viability loss | BJeLR (HRASV12) viability, CellTiter-Glo ATP luminescence, 48 h; reference of the scale not given here | inhibition, % (concentration not given with the values) | 0.17% of 300,000 active | AID 1554;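 active = replicate mean above 50%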;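 note: 50 nL library stock added to about 25 µL; numbers are from one replicate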
PrP 5UTR inh = suppresses PrP 5' UTR mRNA reporter expression | inhibition, % (no concentration beside the values) | 0.35% of 340,000 active | cell-based PrP 5' UTR mRNA reporter, plate reader;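 active = every replicate at 50% or more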;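 note: 0 = median of the neutral control wells; tested in H4 reporter cells; numbers are from one replicate; inactives centre near -14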
Mtb hypoxia inh = reduces hypoxia-regulated biosensor signal in M. tuberculosis | M. tuberculosis hypoxia-regulated fluorescent reporter, fluorescence | fluorescence inhibition, % (test concentration not listed) | 0.1% of 300,000 active;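 active = 35 to 45% if threefold the growth effect, above 45% if 1.5-fold the growth effect; inactive = the rest, general growth blockers included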;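 note: wells of about 50 µL received 100 nL stock; 0% = vehicle wells and 100% = reference inhibitor wells; whole bacteria with a GFP reporter of the hypoxia response; strong numbers were not always called active; many hits fall short of the cut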
Mtb hypoxia inh growth = further read-out of Mtb hypoxia inh, marked with its call; growth inhibition, %; measured here: M. tuberculosis growth (absorbance);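 0% = vehicle and 100% = reference antibiotic; read after six days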
Numbers without * were called inactive; · = not tested or not shown.

canonical_smiles,Sa RN4220 lethal,Bead autofluor,ugtP null kill,BJeLR lethal,PrP 5UTR inh,Mtb hypoxia inh,Mtb hypoxia inh growth
O=[N+]([O-])c1ccc(OCCCCCN2CCOCC2)cc1,5.1,3143,14,12,-24,-2,2
COc1ccc(S(=O)(=O)NCCc2c[nH]c3ccc(C)cc23)cc1,-0.7,3649,-7,2,-40,-2,20
COc1cccc(/C=C/C(=O)OCC(=O)NCCc2ccccc2)c1,8.5,3944,1,-18,-24,4,12
C/C(=N\NC(=O)Cc1ccc(F)cc1)c1ccc(O)cc1,·,2236,·,0,-16,·,·
O=c1c(Cc2ccccc2)c(O)ccn1Cc1ccco1,6.1,3221,2,-15,-29,9,0
O=C(CCc1nc2ccccc2s1)Nc1cccnc1,0.2,4261,3,-1,-7,-11,-1
CCN1C(=O)CC(N2CCC(C(=O)OC)CC2)C1=O (centres undefined),0.5,4205,-1,1,-24,·,·
Cc1cccc(N2CCN(C(=S)c3ccc([N+](=O)[O-])cc3)CC2)c1,-5.6,2218,-5,-5,-4,-5,-3
CNC(=O)CSc1nc2ccccc2c(=O)n1C1CCCCC1,2.2,3437,9,-10,-12,5,-9
C(=NNc1nc(N2CCCCCC2)nc(N2CCCCCC2)n1)c1ccccc1,-1.5,·,13,·,·,-10,-1
Cc1noc(C)c1S(=O)(=O)N(CC(=O)NC1CCCC1)c1ccc(C(C)C)cc1,1.8,5632,1,-1,-21,9,5
O=C(CN1CCOc2ccccc21)NCc1ccc(Cl)cc1,-0.9,5518,9,0,-6,·,·
c1csc(-c2cnc3ccccc3n2)c1,13,10355,-5,10,-62,8,6
Cc1cc(C)cc(C(=O)NCC(=O)OCC(=O)N(C)c2ccccc2)c1,-1.0,4525,0,-22,-15,9,-4
COCCNC(=S)NNC(=O)c1cc(C2CC2)nc2ccccc12,2.3,5070,4,0,-15,6,17
CC1(C)NC(=O)N(CCOCCOc2cccc(Oc3ccccc3)c2)C1=O,0.8,10911,-6,-7,1,-14,4
Cc1cc(C(=O)NN=Cc2ccc(N(C)C)o2)cs1,0.2,·,1,·,·,-1,7
C#CCNC(=O)C1=C[C@@H](c2ccccc2)[C@H](CCCO)[C@@H](OCC)O1,·,3621,·,-6,-32,·,·
O=c1c2cc(Br)ccc2[nH]c(=S)n1-c1ccccc1,10,4398,4,10,10,3,1
CC(=O)C1=C(O)C(=O)N(CC#N)C1c1cccs1 (centres undefined),3.4,3120,4,6,-19,·,·
Cn1c(SCC(=O)c2ccccc2)nnc1-c1cccnc1,8.2,9714,-5,-7,-41,2,8
COc1cccc(NC(=O)COC(=O)CCC2CCCC2)c1,10.0,3202,4,·,-8,14,1
COc1ccc(C=NNc2ccccn2)c(OC)c1,-0.4,·,2,·,·,0,2
Clc1ccc(OCCSc2nnnn2C2CCCCC2)cc1,-5.9,2971,-1,-6,-19,5,7
CN1c2ccc([N+](=O)[O-])cc2CC2(C(=O)NC(=O)N(c3ccccc3)C2=O)C1c1ccccc1 (centres undefined),3.3,2170,-1,-3,0,10,9
CSc1ncnc2[nH]ccc12,2.8,3515,56,·,-1,6,9
C=CCn1c(SCC(=O)NC2CC2)nnc1-c1ccccn1,0.7,5959,4,4,-28,4,5
CC(=NCc1ccco1)C1=C(O)c2ccccc2C1=O,4.9,9186,-1,7,-28,·,·
Cn1c(=O)c2c(ncn2CC(=O)N2CCCCCC2)n(C)c1=O,5.6,·,0,6,-20,15,5
O=c1[nH]c2ccccc2cc1CN(c1ccccc1)S(=O)(=O)c1ccccc1,4.8,2039,-4,-22,1,18,8
CCCCN(C(=O)c1cccc(S(=O)(=O)N2CCN(C)CC2)c1)c1c(N)n(CCC)c(=O)[nH]c1=O,-2.8,·,-4,2,-8,-5,1
Cc1cc(C)c(C(=O)CSc2nnc(-c3cccnc3)n2C)c(C)c1,7.7,8012,14,-15,-1,7,5
CCOc1ccc(CNC(=O)CCS(=O)(=O)Cc2ccc(C)cc2)cc1OC,1.3,3180,5,5,-19,2,11
CNc1cccccc1=S,3.2,5283,-12,6,-7,1,12
COc1ccc(-c2cc(C(=O)OCC(=O)c3c(N)n(C)c(=O)n(C)c3=O)c3ccccc3n2)cc1,-9.0,4637,3,-3,-14,-10,-3
O=C(CN1CCN(C2CCCCC2)CC1)Nc1ccccc1-c1ccccc1,3.4,10647,-1,-5,-22,2,7
CCN1/C(=C/c2ccc3cc(C)ccc3[n+]2C)Sc2ccc3sccc3c21,99*,1823,100*,·,-10,·,·
CC(Cc1ccsc1)NC(=O)CCc1nnc(COc2ccccc2)o1 (centres undefined),3.8,4695,20,-9,-27,4,5
COc1ccccc1N1CCN(C(=O)CNS(=O)(=O)c2ccc(Br)s2)CC1,2.6,5669,1,4,-1,7,-4
CCCc1cc(=O)[nH]c(SCC(=O)NCCCC(=O)OCC)n1,3.0,3510,9,-8,-23,·,·
Cc1c(C=CC(=O)c2ccc(C(C)C)cc2)cnn1C,4.0,·,2,·,·,4,10
COc1ccc2nc(SCC(=O)C(C)(C)C)[nH]c2c1,1.5,4662,8,-6,-81,-3,-3
CC(=O)c1ccc(NC(=O)CCn2c(=O)oc3ccccc32)cc1,4.6,4612,6,0,-36,17,14
Cc1ccnc(SCC(=O)Nc2c(C)n(C)n(-c3ccccc3)c2=O)n1,3.6,8600,-1,-7,-18,3,3
CN(Cc1ccccc1)c1ncnc2c1cnn2-c1ccccc1,2.4,22100*,9,8,-89,13,9
CCN1CCN(c2ccc([N+](=O)[O-])c(Sc3nc4ccccc4[nH]3)c2)CC1,4.1,2048,11,7,-16,16,11
O=C(CCN1N=C(c2ccccc2)CCC1=O)NCC1CCCO1 (centres undefined),2.2,4214,8,-8,-5,2,-2
O=C1NC(=O)C(=Cc2cc(Cl)ccc2OCc2ccc(C(=O)O)cc2)C(=O)N1,0.2,4369,9,8,-10,7,9
O=C(Cc1cccs1)NN=Cc1ccc(OCc2ccccc2)cc1,-0.1,·,-8,·,·,-4,-4
NNC(=O)COc1ccc(C(F)(F)F)cc1,2.9,2117,-6,1,-16,8,5
CCOC(=O)c1[nH]c2ccc(OC)cc2c1NC(=O)c1cccc(OC)c1,2.8,3361,8,-3,2,5,2
C#CCOCCOCCOCCNc1nc(N2CCN(C(=O)CCCCCCCCCCNC(=O)C(CO)n3cc(CCCSC)nn3)CC2)nc(N2CCN(C(=O)CCCCCCCCCCNC(=O)C(CCCCN)n3cc(CCO)nn3)CC2)n1 (centres undefined),2.8,·,4,·,·,6,11
CON(C)S(=O)(=O)c1cccc(C(=O)N(CC(=O)Nc2ccccc2C(F)(F)F)Cc2ccco2)c1,4.4,5258,5,·,-5,4,3
COc1ccc(O)c(C(=O)c2cc(C#N)c(=O)n(-c3c(C)n(C)n(-c4ccccc4)c3=O)c2)c1,0.9,3868,2,4,-5,·,·
O=C(Nc1ccc(F)cc1F)N1CCC(c2nc3ccccc3o2)CC1,5.9,2698,12,-12,-15,14,18
COc1ccc(/C=N/NC(=O)CSc2nnc(CCCc3ccc(OC)c(C)c3)o2)cc1,·,3210,·,-5,-23,·,·
O=C(O)c1ccc(-n2nnnc2SCc2cccc(Br)c2)cc1,5.1,3555,11,1,-8,-5,3
COc1cccc(C=NNC(=O)CN2CC(c3ccccc3)CC2=O)c1O (centres undefined),8.0,·,2,·,·,-2,3
Cc1cc(=O)oc2c3c(cc(OCC(=O)N[C@@H](Cc4ccccc4)C(=O)O)c12)OC(C)(C)CC3,0.7,4341,6,-4,-22,·,·
O=C(CSc1n[nH]c(=O)[nH]c1=O)Nc1cccc(S(=O)(=O)N2CCOCC2)c1,1.7,4793,3,2,-3,-2,10

(list continues)
canonical_smiles,Sa RN4220 lethal,Bead autofluor,ugtP null kill,BJeLR lethal,PrP 5UTR inh,Mtb hypoxia inh,Mtb hypoxia inh growth
COC(=O)CCc1c(C)[nH]c(C(=O)OCc2ccccc2)c1C,7.4,2818,0,-5,-5,13,1
COc1ccc(-c2nc(=S)n3ccsc3n2)cc1OC,14,4341,8,3,-9,13,10
c1ccc(-c2nc(-c3ccco3)n3ccccc23)cc1,8.2,3172,-2,8,7,10,1
Cc1ccc(C)c(N2CCN(c3ccc(N4C(=O)COCC4=O)cc3[N+](=O)[O-])CC2)c1,-0.4,1839,5,-2,-16,2,-1
Cc1cccc(/C=N/NC(=O)c2cc(C3CC3)nc3ccccc23)n1,·,4339,·,-16,-8,·,·
COc1ccccc1CNCC(=O)Nc1cc(S(=O)(=O)N2CCCCCC2)ccc1Cl,8.6,5048,4,-4,-34,9,5
CCN(C(=O)CN1C(=O)c2ccccc2S1(=O)=O)C1CCCCC1,1.9,5327,4,1,-21,12,6
CCOc1ccc(CCNC(=O)C(CCC(N)=O)NC(=O)OCc2ccccc2)cc1OCC (centres undefined),0.5,4151,12,9,-1,3,5
COc1ccc(NC(=O)C2CCCN(S(=O)(=O)c3ccc4c(c3)oc(=O)n4C)C2)cc1OC (centres undefined),1.9,4024,7,-2,-21,0,4
C=CCn1cc(C(=O)NCCOC)c(=O)c2cc(S(=O)(=O)N(CC)CC)ccc21,8.9,16280*,8,13,-4,10,5
OC(COc1c(F)cc(Br)cc1F)CN1CCN(c2ccc(F)cc2)CC1 (centres undefined),7.9,4082,8,2,-21,·,·
CC(C)(C)C(=O)NCCCc1nc2ccccc2n1CCCOc1ccc(Cl)cc1,-13,2967,-26,-18,-27,10,12
Cn1cccc1CC(=O)NN=Cc1c2ccccc2cc2ccccc12,1.3,·,-13,·,·,11,3
C[C@H](NC(=O)c1ccco1)C(=O)Nc1cc(S(=O)(=O)N2CCCC2)ccc1OCC(F)(F)F,4.3,4043,3,·,-12,7,0
COc1cc(Cl)c(C)cc1NC(=O)CSc1cc(Cl)ccc1Cl,1.2,10352,95*,5,-17,2,1
O=C(Nc1ccc(F)cc1)N1CCN(c2ccc(F)cc2)CC1,5.2,3441,15,-15,-21,8,-4
CCn1c(-c2cc(-c3ccc(C)c(C)c3)nc3ccccc23)n[nH]c1=S,2.3,·,-6,16,·,6,6
CCN(CC)CC#Cc1ccc(C)cc1,3.5,4350,5,-2,4,-6,2
COc1ccccc1CNC(=O)COC(=O)Cc1cccs1,3.1,3286,0,3,-16,15,1
COc1ccc(NC(=S)Nc2cccc3ccccc23)cc1OC,0.6,4823,6,2,-22,1,8
Cc1occc1C(=O)N/N=C/c1ccc(N(C)C)cc1,·,3338,·,20,-41,·,·
CC1(C)C(=O)Nc2ccccc2N1C(=O)c1ccc([N+](=O)[O-])cc1,2.5,3213,-4,-7,-12,9,6
O=C(CN1c2ccccc2S(=O)(=O)c2ccccc21)NCc1ccc(F)cc1,·,5400,·,-4,-15,·,·
COc1ccc(CCNC(=O)CCC(=O)N2CCOc3ccc(C)cc32)cc1OC,7.3,4823,14,13,-6,6,6
CCOC(=O)Cc1csc(NS(C)(=O)=O)n1,5.1,7015,10,0,-7,5,5
CC(=O)c1cccc(OCC(=O)N2CCN(CC(=O)Nc3cccc(F)c3)CC2)c1,-2.3,5588,-5,·,-14,-5,8
NC(=O)c1cc2cc([N+](=O)[O-])ccc2oc1=O,·,5207,·,1,-9,·,·
O=C(NCCO)C(=O)NCC1OCCCN1S(=O)(=O)c1cccs1 (centres undefined),4.5,2428,5,-18,-3,8,8
CCN(Cc1cc2cc(C)ccc2[nH]c1=O)C(=O)c1cccc([N+](=O)[O-])c1,4.1,4801,5,-2,-8,1,11
CCS(=O)(=O)c1nc(S(=O)(=O)c2ccc(Cl)cc2)c(N2CCC(O)CC2)s1,8.1,3881,16,0,0,-6,-7
COc1ccc(C2OCC(C)([N+](=O)[O-])CO2)cc1 (centres undefined),3.4,4420,0,·,-14,12,11

Another view of some results above:
CC(=NCc1ccco1)C1=C(O)c2ccccc2C1=O
  Sa RN4220 lethal: 4.9
  Bead autofluor: 9186
  ugtP null kill: -1
  BJeLR lethal: 7
  PrP 5UTR inh: -28
  Mtb hypoxia inh: ·
  Mtb hypoxia inh growth: ·

CC1(C)C(=O)Nc2ccccc2N1C(=O)c1ccc([N+](=O)[O-])cc1
  Sa RN4220 lethal: 2.5
  Bead autofluor: 3213
  ugtP null kill: -4
  BJeLR lethal: -7
  PrP 5UTR inh: -12
  Mtb hypoxia inh: 9
  Mtb hypoxia inh growth: 6

Hits appear at their usual frequency, and some 4% of all compounds hit somewhere here.
